Calb biofilm kill – mixture kills Candida albicans biofilm cells. C. albicans biofilm persisters + clotrimazole, fluorescence viability; primary screen in compound mixtures of four per well. inhibition, % at 7.6 µM. actives 0.02% (n = 120,000);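 active means inhibition above 30.3% in the primary screen of four-compound pools, then above 30% when the compound was retested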;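 further: compounds exposed to preformed 24 h biofilms for 48 h; the number belongs to the whole pool; some results filed as inactive read as strong as hits; inactives centre near 12; 0% = biofilm with clotrimazole alone and 100% = kill control; retested singly at about 60 µM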
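System: C. albicans CAF4-2 wild-type biofilms; Medium: RPMI/MOPS medium, pH 7.0; Reagent: Clotrimazole, 50 µg/mL; Times: biofilm formation 24 h, compound exposure 48 h, 37 °C; Detection: 2-h Alamar Blue fluorescence, 535/590 nm excitation/emission; Evaluation: percent inhibition of biofilm viability.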
* = called active by the depositor.

smiles,Calb biofilm kill
Cc1[nH]c2ccccc2c1/C=N/NC(=O)c1cccc(S(=O)(=O)Nc2ccccc2Cl)c1,15.9
O=S(=O)(NCC(Nc1ccc(Cl)cc1)c1ccccc1)c1ccccc1 (stereo not given),9.1
COc1ccc(-c2nnc(SCC(=O)N(C)C3CCS(=O)(=O)C3)n2N)cc1OC (stereo not given),4.6
N/C(=N\S(=O)(=O)c1cc(C(F)(F)F)cc(C(F)(F)F)c1)c1cccs1,14.1
COc1ccc(Cl)cc1N(CC(=O)N/N=C/c1ccc(OC(C)C)cc1)S(=O)(=O)c1ccc(C)c([N+](=O)[O-])c1,13.3
O=C(N/N=C/c1nn(-c2ccccc2)cc1-c1ccccc1)c1ccncc1,6.1
CCOC(=O)c1c(NC(=O)Cn2nc(C(F)(F)F)cc2C)sc(C)c1C,24.8
O=[N+]([O-])c1ccccc1Oc1cnc2ccccc2n1,17.3
O=C1CCC([N+](=O)[O-])C(c2ccc(Br)cc2)N1 (stereo not given),13.8
O=C(NCc1ccccc1)C1=C[C@@H](c2csc3ccccc23)C[C@@H](OCCCCO)O1,12.8
Clc1ccc(Nc2ccccc2)nn1,15.7
Nc1cc(-c2ccccc2)n2c(n1)nc1ccccc12,18.4
N#C/C(=C\N1CCOCC1)C(N)=O,27.3
O=C(CN1CCN(S(=O)(=O)c2ccccc2[N+](=O)[O-])CC1)NC(=O)NCc1ccco1,-6.1
COc1ccc(-c2[nH]ncc2CN(C)C(C)c2ccon2)cc1F (stereo not given),5.7
Brc1ccc2[nH]c3c(NCc4ccccn4)ncnc3c2c1,8.4
CC(=O)N1CCCN(Cc2nc(C3(c4ccc(C)cc4)CCCC3)no2)CC1,6.7
N#C/C(=C/c1cn(-c2ccccc2)nc1-c1cccc(S(=O)(=O)N2CCCC2)c1)C(=O)NCc1ccco1,3.2
COC(=O)c1ccccc1NC(=O)CNC(=O)c1ccc(OC)cc1,10.3
Cn1cc(CN2CCN(c3ccc(Cl)cn3)CC2)c(-c2ccccc2F)n1,6.2
Cc1ccccc1OCC(=O)Nc1nc2ccccc2[nH]1,10.0
CC1CCN(c2c(NCc3ccc(C(=O)NCCc4ccc(Cl)cc4)cc3)c(=O)c2=O)CC1,5.6
CN(C(=O)c1ccc(OC2CCN(CCc3ccccc3)CC2)cc1)C1CCOC1 (stereo not given),28.0
CN(C(=O)CC1C(=O)NCCN1Cc1ccoc1)C1CCOCC1 (stereo not given),10.6
OC1COC(OCc2ccccc2)C(O)C1O (stereo not given),-3.1
CCCNC(=O)c1ccc2c(c1)ncn2-c1cc(C)cc(C)c1,9.9
Cn1cc(Cl)c(C(=O)NC(=S)Nc2sc3c(c2C#N)CCCCC3)n1,2.8
Cc1ccsc1/C=C1\SC(N2CC(C)OC(C)C2)=NC1=O (stereo not given),16.4
Cc1c(Cl)cccc1NC(=O)Nc1ccc(C(N)=O)cc1,16.6
Cc1nn(CC(=O)N2CCN(C)CC2)c(=O)c2ccccc12,5.1
CCC(=O)Oc1oc(-c2ccccc2)nc1C=Nc1ccc(C)cc1,32.6
C/C(=N\NC1=NCCN1)c1ccc(N)c([N+](=O)[O-])c1,6.3
C=CCNC(=O)CSc1cc([N+](=O)[O-])cc(S(=O)(=O)Cc2ccccc2)c1,9.0
CC(=O)C1=C(C)NC(=O)NC1c1cc(Br)ccc1OCC#N (stereo not given),6.1
O=C(C(Sc1ccccc1)c1ccccc1)N1CCOCC1 (stereo not given),20.8
O=C(O)CCN1C(=O)c2ccc(NC(=O)c3ccco3)cc2C1=O,13.9
O=C(NNC(=O)c1ccccc1-c1ccccc1C(=O)O)c1cccc([N+](=O)[O-])c1,16.9
O=C(OCc1cccc(F)c1)c1ccc2c(=O)n3c(nc2c1)CCC3,19.7
CC(C)C(=O)Nc1ncc2c(n1)CC(c1cccs1)CC2=O (stereo not given),10.8
O=Cc1cc([N+](=O)[O-])ccc1N1CCOCC1,11.5
C/C=C/C(=O)Nc1cccc(C2=NOC3(C2)C[C@@H](C(N)=O)N(C(=O)C(c2ccccc2)c2ccccc2)C3)c1 (stereo not given in full),45.4
OC(COCc1cccs1)CN1CCN(c2cccc(C(F)(F)F)c2)CC1 (stereo not given),-0.6
CCOC(=O)c1ccc(-n2c(O)c(/C=N/NC(=O)C3COc4ccccc4O3)c3ccccc3c2=O)cc1 (stereo not given),1.3
COc1ccc(/C(N)=N/OC(=O)c2ccco2)cc1,5.8
CCN1CCN(C(=S)Nc2cccc(Cl)c2)CC1,5.1
CC(C)NCc1nnc(-c2ccccc2Cl)o1,10.2
COc1cc(O)c(C(C)=O)cc1OC,8.5
CCS(=O)(=O)N1Cc2ccccc2CC1C(=O)Nc1nnc(SCc2ccc(F)cc2)s1 (stereo not given),13.0
C/C(=N/NC(=O)c1ccoc1C)c1cccc(NC(=O)C2CC2)c1,19.1
O=C1/C(=C\c2ccco2)SC(=S)N1C1CCS(=O)(=O)C1 (stereo not given),-1.0
COC(=O)C1=C(C)N(Cc2ccccc2)C(=O)/C1=C\c1ccco1,4.7
CC(=O)Nc1ccc(NC(=S)NC(=O)c2cc3ccccc3o2)cc1,11.7
O=C(Nc1ccc(Oc2cccc(C(F)(F)F)c2)nc1)c1ccccc1,19.3
Cc1cc(SCC(=O)N(C)C2CCS(=O)(=O)C2)nc2c(C)cccc12 (stereo not given),16.1
Cc1ccc(C2(c3ccc(C)cc3)CC2C(=O)NCc2cccnc2)cc1 (stereo not given),-13.0
S=c1[nH]nc(-c2ccncc2)n1/N=C/C=C/c1ccccc1,16.3
OC(COCC1COc2ccccc2O1)CN1CCCCC1 (stereo not given),11.2
Cc1onc(-c2c(Cl)cccc2Cl)c1C(=O)NC(=S)N1CCOCC1,18.0
CCC(C(=O)OCCN(CC)CC)c1ccccc1 (stereo not given),13.6
Cc1cc(C(=O)CN2C(=O)C(=O)N(C3CCCC3)C2=O)c(C)n1-c1ccc(F)cc1,13.0

Retrieved by compound from the list above (2):
smiles,Calb biofilm kill
O=C(OCc1cccc(F)c1)c1ccc2c(=O)n3c(nc2c1)CCC3,19.7
CCC(=O)Oc1oc(-c2ccccc2)nc1C=Nc1ccc(C)cc1,32.6

Given with each value named: entries from further up
> CCC(=O)Oc1oc(-c2ccccc2)nc1C=Nc1ccc(C)cc1
  Calb biofilm kill: 32.6
> C/C(=N\NC1=NCCN1)c1ccc(N)c([N+](=O)[O-])c1
  Calb biofilm kill: 6.3

Further entries
smiles,Calb biofilm kill
O=C(COC(=O)/C=C/c1ccco1)Nc1ccccc1,7.2
NC(=O)CN1C(=O)C(O)(CC(=O)/C=C\c2ccc3c(c2)OCO3)c2ccccc21 (stereo not given),20.5
Cn1c(=O)c([N+](=O)[O-])c(NCc2ccc3c(c2)OCO3)c2ccccc21,19.5
O=C(c1ccc(N2CCN(CCO)CC2)nc1)N1CCOCC1,-13.3
CCCCN(CCCC)C(=O)c1cc(Cl)ccc1[N+](=O)[O-],19.8
COC(CC(=O)NNC(=S)Nc1ccc(Cl)cc1)OC,19.4
COC(=O)C1(C(=O)OC)NOC2C(=O)N(N(C)c3ncc(C(F)(F)F)cc3Cl)C(=O)C21 (stereo not given),15.9
CS(=O)(=O)NCCNc1ccc(Cl)cc1[N+](=O)[O-],14.6
O=c1c(Br)c(N2CCCCC2)cnn1-c1ccccc1,2.8
CCNc1cc(Nc2c(C)n(C)n(-c3ccccc3)c2=O)c([N+](=O)[O-])c2nonc12,12.4
Cc1c(C(N)=O)c(-c2ccccc2)nn1-c1ccccc1,5.8
COc1cc(NC(=S)N2CCCC(C)C2)cc(OC)c1OC (stereo not given),21.7
Cc1csc2ncnc(N3CCN(C(=S)Nc4ccc(C(F)(F)F)cc4)CC3)c12,20.6
N#C/C(=C/c1ccc2c(c1)OCO2)C(=O)Nc1ccc(O)cc1,10.2
Cc1c(Cl)cccc1NC(=O)CNc1cccc(C(F)(F)F)c1,20.5
Cc1nn(-c2ccccc2)c(C)c1-c1nnc(-c2c(C)nn(-c3ccccc3)c2C)o1,13.9
C/C(=N\NC(=O)C1CC1(C)c1ccccc1)c1ccco1 (stereo not given),3.3
CC(=O)Nc1ccc2nc(NC(=O)COc3ccccc3)sc2c1,15.4
CCCCCCCNC(=O)CC(NS(=O)(=O)c1ccc(NC(C)=O)cc1)C(C)C (stereo not given),7.4
CCc1cc2cc(OC)ccc2nc1SCC(=O)Nc1cc(OC)c(OC)cc1C(=O)O,51.6
Cc1ccc(C)c(OCCCC(=O)Nc2ccccc2C(N)=O)c1,7.5
C/C=C(/C)C(=O)O[C@@H]1c2c(ccc3ccc(=O)oc23)O[C@@H]1C(C)(C)OC(C)=O,16.7
O=C1CCCN2N=C(SCC(=O)N3CCCCC3)SC2=N1,27.8
CC(C)c1nc2ccc(Br)cn2c1NC1CCCC1,8.9
CC1CCN(CCC(=O)Nc2nccs2)CC1,22.9
O=C(N/N=C/C=C/c1ccccc1)NC1CCCCC1,17.9
COc1cccc(/C=N/NC(=O)C(=O)N/N=C/c2cccc(OC)c2OC)c1OC,6.4
Fc1ccc2nc(Nc3ccccc3)sc2c1,9.9
NC(=S)N/N=C/c1cn(-c2ccccc2)nc1-c1cccnc1,16.1
CCC(C)NCCCCOc1ccc(Cl)cc1C (stereo not given),12.1
COc1ccccc1OS(=O)(=O)c1ccc(NC(C)=O)cc1,16.1
Cc1cc(/C([O-])=C(/C(=S)Nc2ccc(F)cc2)[n+]2ccccc2)c(C)n1Cc1ccccc1Cl,9.8
CC(NS(=O)(=O)c1ccccc1)C(=O)NCCc1ccccn1 (stereo not given),1.1
O=C(CCC(=O)NC1CCCCC1)N/N=C/c1ccncc1,21.8
C=CCNC(=O)/C(C#N)=C/c1cc(Br)ccc1OC,2.7
CC(=O)O[C@H]1CC[C@]2(C)[C@H]3CC=C4[C@@H]5[C@@H](C)[C@H](C)CC[C@]5(C(=O)O)CC[C@@]4(C)[C@]3(C)CC[C@H]2C1(C)C,15.5
COc1ccc2c(c1)C=C([C@@H]1C[C@H]3CN(c4ccccc4)C(=O)[C@]34CCCN14)CO2,5.4
CCNc1nc(ON=C(C)C)nc(N(C)C)n1,11.8
CN(C(=O)CCc1nc(-c2ccccc2F)no1)c1ccccc1,17.3
CC(=O)N1CCc2cc(S(=O)(=O)CCC(=O)Nc3cccc(F)c3)ccc21,-1.7
Cc1ccc(C2CC2C(=O)NNC(=S)Nc2ccc(Cl)cc2)cc1 (stereo not given),13.3
NC12CC3CC(C1)CC(CC(=O)O)(C3)C2,13.6
O=C(O)COc1ccc(NC(=O)c2cccs2)cc1,8.5
Cc1cccc(C)c1NC(=O)CSc1ccc([N+](=O)[O-])cn1,9.0
COc1ccccc1NC(=O)CCC(=O)N(Cc1ccc(OC)c(OC)c1)c1nccs1,7.0
COC(=O)C(CCSC)NS(=O)(=O)c1ccc(Cl)cc1 (stereo not given),21.0
CC(C)NC(=O)COC(=O)/C=C/c1ccco1,9.3
O=C(CCN1CCN(CCO)CC1)Nc1ccc(C2CCCC2)cc1,4.1
COc1ccc(-c2ccn(-c3cccc(F)n3)n2)cc1,2.9
COCCNC(=O)c1ccccc1N(Cc1ccccc1)S(=O)(=O)c1ccc(C)cc1,14.5
CCCCCc1ccc(OCCOCCn2c[n+](C)c3ccccc32)c(CCCCC)c1,-9.2
COc1cc(/C=C2/SC(=Nc3ccc(O)cc3)NC2=O)cc(OC)c1O,11.9
CCOC(=O)C(=O)Nc1cc(C(=O)OC)cc(C(=O)OC)c1,12.3
CCOC(=O)C1(Cc2ccccc2)CCN(Cc2ccc3c(c2)OCCO3)CC1,5.4
CC(/C=C1\SC(=Nc2cccnc2)NC1=O)=C\c1ccccc1,23.1
COc1cc(/C=C/C(=O)O)cc(S(=O)(=O)N(CC(C)C)CC(C)C)c1OC,1.3
CCCN1C(=O)S/C(=C\c2ccc(N3CCOCC3)o2)C1=O,9.4
CCC(=O)Oc1ccc(NC(=O)CSCc2ccccc2)cc1,13.8
COc1cc(OC)cc(C(=O)N[C@H](C(=O)OCC(=O)Nc2ccc(F)c(F)c2)C(C)C)c1,15.0
O=C(c1sc2cc([N+](=O)[O-])ccc2c1Cl)N1CCOCC1,-3.3

Next results.
smiles,Calb biofilm kill
COC(OC)c1ccc(C#N)c(SCc2ccc(C)cc2)n1,21.2
COc1ccc(OCC(=O)Nn2c(-c3ccc(OC)cc3)nc3ccccc3c2=O)cc1,6.6
CCOC(=O)c1c(C)[nH]c(C(=O)COC(=O)CCS(=O)(=O)c2ccc(C)cc2)c1C,7.2
CCc1nnc(NC(=O)c2cc(-c3ccccn3)nc3ccccc23)s1,11.7
COc1ccc(C(C2C(=O)CC(C)(C)CC2=O)C2C(=O)CC(C)(C)CC2=O)cc1,13.3
O=C(Cn1c(=O)c2sccc2n(Cc2cccc([N+](=O)[O-])c2)c1=O)NCCc1ccccc1,18.0
COc1ccc(S(=O)(=O)N2CCOC2CNC(=O)C(=O)NCc2ccco2)cc1C (stereo not given),11.6
COCCn1c(SCC(=O)c2ccccc2)nc2c(c1=O)SC(C)C2 (stereo not given),13.7
C=CCN1C(=O)NC(c2ccc(OC)cc2)(C(F)(F)F)S/C1=C(\C#N)c1nnc(N2CCOCC2)n1-c1ccccc1 (stereo not given),15.1

These rows are one share of the data. The share of hits here may be higher or lower than overall.
